E coli growth – E. coli growth inhibition; OD600 absorbance (no concentration beside the values); 330,000 compounds, 0.21% hits; Escherichia coli growth, OD600, 23 h; active compounds read low; AID 1053175;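 active = OD600 absorbance below the run mean of sample wells minus 3.6 SD, in any replicate, cut at about 0.56 in these data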;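 note: stock transfer was 300 nL into about 60 µL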
Ecoli rRNA inh – selective bacterial rRNA inhibition in E. coli. E. coli WT GFP vs humanized-ribosome RFP mutants, fluorescence, 24 h; active compounds read low; DMSO median 0, no signal -100. GFP signal change (wild-type ribosome), % (concentration not given with the values). 350,000 compounds, 1.6% hits. AID 720706;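 active = significant combined selectivity score with lowered wild-type GFP, culture density cut under 30%, mutant RFP and density less affected; inactive = any of these conditions unmet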; note: one replicate is shown; some compounds called inactive have numbers as strong as hits
Beta apoptosis – beta cell apoptosis inhibition; AID 435005; protection from apoptosis, % (concentration not given with the values); 300,000 compounds, 0.8% hits; INS-1E cytokine-induced death, ATP luminescence, 48 h; percent of positive-control rescue, neutral wells zero;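 active = all replicates at 75% or more, or half of them and the mean; inconclusive = half reach 75% but not the mean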;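 note: 0% = cytokine-treated negative control wells and 100% = positive control rescue; higher means more ATP so stronger rescue from cytokine killing; wells of about 40 µL received 100 nL stock; the first replicate is given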
FGF22 binding – shifts melting point of recombinant human FGF22; recombinant FGF22 thermal shift, SYPRO orange fluorescence; percent of sucrose octasulfate shift, DMSO zero; calls only at 9.99 µM; 340,000 compounds, 1.5% hits; AID 651658;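 active = melting point raised past a set limit in the mean and every replicate; inconclusive = no clear call; three in four hits are not shown here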
Target sequence (Q9HCT0 whole entry, looked up): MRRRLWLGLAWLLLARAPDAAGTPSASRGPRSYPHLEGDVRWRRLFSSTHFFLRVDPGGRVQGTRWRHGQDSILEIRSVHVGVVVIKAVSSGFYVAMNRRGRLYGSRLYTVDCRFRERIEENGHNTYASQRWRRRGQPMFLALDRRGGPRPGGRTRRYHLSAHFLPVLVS
T cruzi repl – blocks replication of Trypanosoma cruzi | T. cruzi beta-gal in NIH3T3, luminescence, 90 h | 300,000 compounds, 1.4% hits | AID 1885 | inhibition, % (test concentration not listed);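 active = mean inhibition across valid replicates above about 55%, limit read from the data; inconclusive = mean below that limit but half or more replicates reach it; inactive = mean below it, under half of replicates reach it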;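 note: signal also drops with host cell toxicity which is not excluded here; 0% = plate median of DMSO wells and 100% = zero luminescence signal; higher percent means less beta-gal luminescence so fewer parasites; stock transfer was 50 nL into about 50 µL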
MLL AF4-AF9 inh – MLL-AF4/AF9 protein interaction inhibition. AlphaScreen, biotin-AF4 peptide binding to FLAG-AF9. inhibition, % at 10 µM. 350,000 compounds, 0.47% hits. AID 651704;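 active = every replicate reaching a set inhibition limit, whatever the replicate mean, cut at about 25% in these data; inconclusive = mean inhibition reaches that limit but some replicates miss it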;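 note: 0% = plate neutral control median and 100% = total signal loss; the record names both 10 and 1 µM as test concentration; the first replicate is given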
Target sequence (P42568 whole entry, looked up): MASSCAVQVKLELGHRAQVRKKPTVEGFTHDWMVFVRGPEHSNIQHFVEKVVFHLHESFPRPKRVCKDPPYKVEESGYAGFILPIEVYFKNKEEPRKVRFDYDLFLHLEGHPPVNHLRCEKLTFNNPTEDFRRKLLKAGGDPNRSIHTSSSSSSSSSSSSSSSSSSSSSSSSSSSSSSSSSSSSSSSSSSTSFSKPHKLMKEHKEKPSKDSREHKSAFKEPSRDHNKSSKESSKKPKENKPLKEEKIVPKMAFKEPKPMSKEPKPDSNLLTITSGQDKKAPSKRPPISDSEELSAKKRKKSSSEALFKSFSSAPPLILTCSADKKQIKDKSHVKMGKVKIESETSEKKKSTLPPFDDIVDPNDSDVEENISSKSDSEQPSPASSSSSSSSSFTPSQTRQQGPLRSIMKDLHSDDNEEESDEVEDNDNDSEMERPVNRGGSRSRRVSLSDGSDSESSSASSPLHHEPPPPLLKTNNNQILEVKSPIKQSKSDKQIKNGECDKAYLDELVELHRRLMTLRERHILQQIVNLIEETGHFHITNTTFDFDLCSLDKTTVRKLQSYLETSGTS
A1 inh – inhibitors of the anti-apoptotic protein A1, read as caspase activation; AID 2462; caspase activation, % (no concentration beside the values); 330,000 compounds, 0.066% hits; MEF A1-2A-BIM cells, Caspase-Glo 3/7 luminescence, 3 h; percent of clofoctol response, vehicle zero;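 active = over half of replicate activation scores above 10%, or exactly half above 10 with the replicate mean above 10; inconclusive = replicate mean below 10 yet half the replicates above 10; inactive = over half of replicates below 10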;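 note: wells of about 30 µL received 50 nL stock; many hits fall short of the cut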
UCH37 inh – inhibitors of human deubiquitinating enzyme UCH37; Q9Y5K5; purified proteasome/UCH37, Ub-AMC cleavage fluorescence; inhibition, % (test concentration not listed); AID 588478; 330,000 compounds, 0.33% hits;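 active = mean of two replicates above 20%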;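 note: 0% = compound-free wells with enzyme and 100% = wells lacking proteasome; stock transfer was 100 nL into about 20 µL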
Target sequence (Q9Y5K5 whole entry, looked up): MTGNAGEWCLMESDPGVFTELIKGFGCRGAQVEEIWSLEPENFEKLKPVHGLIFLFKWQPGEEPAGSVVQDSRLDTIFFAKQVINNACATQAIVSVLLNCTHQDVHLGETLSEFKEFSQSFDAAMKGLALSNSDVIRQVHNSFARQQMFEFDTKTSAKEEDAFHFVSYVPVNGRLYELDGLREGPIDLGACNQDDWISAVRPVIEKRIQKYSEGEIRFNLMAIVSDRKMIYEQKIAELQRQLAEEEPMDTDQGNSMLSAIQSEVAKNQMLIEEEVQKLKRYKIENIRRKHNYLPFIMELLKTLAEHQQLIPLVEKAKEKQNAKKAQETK
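Material: human UCH37 enzyme supplied as purified proteasome complex / Amount: 0.15 nM proteasome as dispensed / Buffer or medium: pH 7.4 Tris-HCl (50 mM) with ovalbumin, ATP-MgCl2, DTT / Times: preincubation 30 min, reaction 25 min, room temperature / Technique: AMC fluorescence from Ub-AMC cleavage, excitation 355 nm, emission 460 nm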
Ecoli rRNA inh OD600 – second read-out of Ecoli rRNA inh, no call of its own (marks repeat the call); OD600 change, %; measured here: OD600 growth;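 optical density of the mix in the first replicate; 0 = DMSO median and -100 = no signal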
Ecoli rRNA inh RFP – recorded beside Ecoli rRNA inh, whose call it bears; RFP signal change, %; measured here: RFP humanized mutant strains;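 first replicate; 0 = DMSO median and -100 = no signal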
An asterisk follows results filed as active; i = inactive; ? = inconclusive; / = no result given. The list is partial, so the mix of outcomes need not match the whole.

SMILES	E coli growth	Ecoli rRNA inh	Ecoli rRNA inh OD600	Ecoli rRNA inh RFP	Beta apoptosis	FGF22 binding	T cruzi repl	MLL AF4-AF9 inh	A1 inh	UCH37 inh
CC(C)Oc1ccc(CNC(=O)CCCN2C(=O)C(c3ccccc3)Oc3cccnc32)cc1 (centres undefined)	0.7	6	4	-0.3	-3	i	12	2.1	0.0	-1.1
COC(=O)C1C2CCC(C2)C1C(=O)OCC(=O)c1ccccc1 (centres undefined)	0.71	/	/	/	3	/	-4	/	0.8	2.4
C=CCN(C(=O)CCC(=O)Nc1cc(C)on1)C(C(=O)NC(C)(C)C)c1ccc(OC)cc1 (centres undefined)	0.66	0	3	0.1	-20	i	3	-3.0	0.3	4.6
O=C(NC1CCCCCC1)C1CC(=O)N(Cc2ccccc2)C1 (centres undefined)	0.71	/	/	/	-6	/	-10	/	0.4	-1.6
O=C1CN(C(=O)COc2c(F)c(F)cc(F)c2F)c2ccccc2N1	0.69	11	11	-1.1	-4	i	-3	-0.3	0.4	0.6
Cn1c(SCc2ccccc2Br)nc2ccccc2c1=O	0.68	9	16	0.5	1	i	12	-9.0	0.1	2.5
CCC(=O)Nc1c2c(nc3c1CCC3)CCCC2	0.71	/	/	/	-4	/	-2	/	1.0	4.4
CCN(CC)C(=O)C1CCN(Cc2ccc(OCc3ccccc3)c(OC)c2)CC1	0.67	12	2	-1.0	2	i	15	-0.2	-0.2	-1.3
CC(=O)c1ccc(Nc2nc(NCCO)nc(OC(C(F)(F)F)C(F)(F)F)n2)cc1	0.71	/	/	/	0	/	-11	/	0.1	2.5
COc1ccc(NC(=O)Nc2ccc3c(c2)CCC3)cc1OC	0.65	12	0	-0.3	-2	i	9	0.3	0.1	2.9
CCOc1ccc2nc(SCC(=O)NC3CCCc4ccccc43)sc2c1 (centres undefined)	0.71	/	/	/	4	/	2	/	0.5	2.9
O=C(/C=C/c1ccc(Cl)cc1)Nc1ccc(N2CCOCC2)cc1	0.73	-10	6	-7.8	-9	i	-10	-0.3	0.5	8.2
CCOC(=O)c1sc2ncn(/N=C/c3ccc(O)c(OC)c3)c(=O)c2c1C	/	/	/	/	-1	/	3	-1.7	-1.8	/
COc1ccc(C2=NN(C(C)=O)CC2c2cccc([N+](=O)[O-])c2)cc1 (centres undefined)	0.69	-6	5	2.6	0	i	-9	8.7	0.1	1.2
CCCOC1CCCN(C(=O)c2cc(COc3cncc(Cl)c3)on2)C1 (centres undefined)	0.68	1	2	-1.4	/	i	1	-1.2	/	2.0
CCC(C)Nc1nc(N)c([N+](=O)[O-])c(NCCO)n1 (centres undefined)	0.67	8	-4	1.5	-5	i	1	/	-0.2	17
O=C(CCCNC(=O)c1ccc(Cl)cc1)Nc1ncccc1O	0.66	-8	-26	-6.1	2	i	4	-0.5	-1.7	2.4
OCCC1CN(Cc2ccc3c(c2)CCO3)CCN1C1CCCC1 (centres undefined)	0.68	-8	-3	-3.4	-9	i	1	-22	0.4	-0.9
O=C(Nc1cccc(Br)c1)c1cc(S(=O)(=O)N2CCOCC2)cs1	0.74	-13	-11	0.5	0	i	-5	0.6	-0.5	6.0
Cc1onc(C(=O)Nc2cccnc2Cl)c1[N+](=O)[O-]	0.69	9	2	-1.9	-3	i	2	-1.6	0.4	3.0
O=C(c1ccco1)N1CCN(c2ccc([N+](=O)[O-])cc2Cl)CC1	0.65	5	4	-4.9	11	i	8	3.0	-0.1	6.0
COc1ccc(CN(C)C2c3ccccc3-c3ccccc32)cc1	0.7	/	/	/	/	/	-24	/	0.8	4.0
Cc1cccc(-c2noc(-c3ccoc3C)n2)c1	0.67	9	1	-3.3	-4	i	3	-2.5	-9.9	2.0
COc1ccccc1-c1ccc(/C=C2\C=CC(=O)O2)o1	0.7	3	0	5.8	-38	i	-11	-7.5	-2.6	-16
COCCCNC(=O)c1cccc(NC(=O)c2ccccc2)c1	0.64	/	/	/	-3	/	-10	/	-1.9	6.5

New compounds follow:
SMILES	E coli growth	Ecoli rRNA inh	Ecoli rRNA inh OD600	Ecoli rRNA inh RFP	Beta apoptosis	FGF22 binding	T cruzi repl	MLL AF4-AF9 inh	A1 inh	UCH37 inh
O=C(N/N=C/c1ccoc1)c1cccc(OC(F)(F)C(F)F)c1	/	10	8	-0.9	-3	i	6	3.8	0.2	/
COc1cccc(-c2nc3ccccc3c(=O)o2)c1	0.68	/	/	/	0	/	-42	/	-5.1	-3.9
Cc1cc(Cl)ccc1OCC(=O)NNC(=O)C1CCCO1 (centres undefined)	0.65	13	18	0.9	-2	i	-22	-1.6	0.1	2.3
O=C(/C=C/c1ccco1)Nc1cccc(S(=O)(=O)N2CCOCC2)c1	0.69	/	/	/	4	/	-43	/	0.9	4.7
Nn1c(SCC(=O)Nc2ccc(OC(F)F)cc2)nnc1-c1ccco1	0.64	2	7	2.9	/	i	11	-8.6	-0.4	0.3
CCOc1ccc(NC(=O)CCC(=O)NNC(=O)COc2ccc(C)cc2)cc1	0.74	23	16	3.0	-1	i	-6	-0.2	-0.5	3.6
COc1ccc(C2(C(=O)Nc3ccccc3)CCOCC2)cc1	0.72	/	/	/	-6	i	9	1.4	0.1	1.1
NC(=O)CN1C(=O)NC2(CCCc3ccccc32)C1=O (centres undefined)	0.69	5	9	-0.7	1	i	-11	0.0	0.3	-1.9
CC1CN(S(=O)(=O)c2ccc(C(=O)N3c4ccccc4CC3C)cc2)CC(C)O1 (centres undefined)	0.71	9	10	-2.6	-1	i	/	-2.3	-0.6	1.0
Cc1cc(C)n2nc(SCC(=O)N(C)C3CCCCC3)nc2n1	0.7	4	10	-1.4	-1	/	-19	-1.5	-0.3	0.1
CC1C2C(C)N(C)C(=O)N(C)C2N(C)C(=O)N1C (centres undefined)	0.61	/	/	/	-2	/	-2	/	1.0	0.6
CC(C)N(C)C(=O)CCc1nnc(CCc2c[nH]c3ccccc23)o1	0.69	/	/	/	1	/	-14	/	0.4	2.7
COc1ccc(C2CC(c3ccccc3)=NN2C(=O)CN2N=NC3C(=O)N(c4cccc(F)c4)C(=O)C32)cc1 (centres undefined)	0.7	/	/	/	2	i	14	1.7	0.4	1.2
COc1ccc(C(=O)N2CCN=C2SC)cc1OC	0.7	/	/	/	2	/	2	/	1.2	0.5
Cc1cc(NC(=O)COC(=O)COc2ccc3c4c(c(=O)oc3c2)CCC4)no1	0.65	9	12	-11	1	i	-13	-0.7	0.3	-24
CC(C)(C)c1ccc(C(=S)N2CCN(c3ccccc3)CC2)cc1	0.67	10	-3	3.2	-5	i	1	-1.7	0.1	1.8
NC(=O)C1CCN(CCS(=O)(=O)c2ccc(Cl)cc2)CC1	0.64	27	-4	4.2	-1	i	-13	1.3	0.6	1.1
CC(C)(C)C1CCC(=O)N(CCSc2ccccc2)CC1 (centres undefined)	0.67	-44	-71	-24	0	i	2	-3.5	0.0	-0.2
O=[N+]([O-])c1ccc(NC2CCCC2)cc1	0.64	/	/	/	-1	/	-9	/	?	6.9
Cc1ccc(CN2CCN(Cc3nc(C(C)C)cs3)CC2CCO)cc1 (centres undefined)	0.65	3	-6	-5.9	5	i	46	-5.6	0.0	1.4
Cc1cccc(NC(=O)Nc2cccnc2)c1C	0.68	6	8	-1.2	5	i	/	-1.0	-1.0	0.6
Cc1c(NC(=O)COc2c(F)c(F)c(F)c(F)c2F)c(=O)n(-c2ccccc2)n1C	0.7	4	8	-1.6	2	i	-3	-4.0	0.3	0.6
Cc1ccnn1-c1ccc(C(=O)NCc2ccccc2CN2CCOCC2)cc1	0.67	-8	-11	5.2	1	i	/	-2.5	0.3	3.8
O=C(O)c1cccc2c1C(=O)c1ccc(-c3ccc(F)cc3F)cc1S2(=O)=O	0.7	-26	-24	-22	-1	i	/	-3.0	1.9	0.6
Oc1ccccc1N1CCN(c2ncnc3sc(-c4ccccc4)cc23)CC1	0.71	-27	-40	-14	-4	i	23	-12	-0.3	-3.0

(more compounds)
SMILES	E coli growth	Ecoli rRNA inh	Ecoli rRNA inh OD600	Ecoli rRNA inh RFP	Beta apoptosis	FGF22 binding	T cruzi repl	MLL AF4-AF9 inh	A1 inh	UCH37 inh
CC(=O)c1c(N2CCN(C)CC2)nc(=S)n(-c2cc(C)ccc2C)c1C	/	20	15	3.1	0	i	-26	-4.4	-0.3	6.8
CN(C(=O)c1cccc(NC(=O)Cc2ccc(NC(=O)C3CCCN(C(=O)C4CC4)C3)cc2)c1)C1CCC1 (centres undefined)	0.68	5	18	-1.9	/	i	/	-1.2	/	2.9
CCN(CC)C(=O)COc1ccc(/C(C)=N/Nc2ncc(Cl)cc2Cl)cc1	/	-4	-8	0.3	2	i	-3	-0.9	-0.3	/
CSc1ccccc1OCc1cc(C(=O)NCCC2CCCCO2)no1 (centres undefined)	0.64	6	7	3.9	2	i	6	-0.8	-0.5	-2.0
CC(C)(C)CN1C(=O)C(=O)NC[C@@H]1CCCCN	/	10	13	-2.8	-7	i	-9	-0.9	0.2	0.7
COc1cccc2c(=O)c3ccccc3oc12	0.65	-4	1	-0.1	2	i	-5	3.5	-0.6	-20
Cc1ccc(S(=O)(=O)CCC(=O)OCc2nnc(-c3ccccc3)o2)cc1	0.65	-2	-12	7.2	-7	i	/	-5.5	2.5	-3.8
O=c1[nH]c(CN(CCO)CCO)nc2c1C1(CCCCC1)Cc1ccccc1-2	0.7	/	/	/	-14	/	-10	/	0.7	8.6
CCC(C)c1ccccc1NC(=O)CN(CC)CC(=O)Nc1ccc2c(c1)OCCO2 (centres undefined)	0.68	-35	-42	-5.5	-4	i	/	0.0	-0.4	-2.1
CC1=NN(C(=O)Cn2nc([N+](=O)[O-])c(Br)c2C)C(O)(C(F)(F)F)C1 (centres undefined)	0.67	12	4	-0.6	-1	i	15	1.0	0.5	-0.8
Nc1c(Cl)cc(C2=NCCn3c2c2ccc(C(F)(F)F)cc2[n+]3[O-])cc1Cl	0.66	-7	-18	-2.9	7	i	1	/	-0.8	4.3
CCc1ccc(C(C(=O)NC(C)(C)CC)N(Cc2ccco2)C(=O)Cn2nnc3ccccc32)cc1 (centres undefined)	0.76	/	/	/	17	/	20	/	0.7	-0.1
Cc1sc2nc(CC(=O)N3CCCC3)[nH]c(=O)c2c1C	0.74	13	14	-1.7	-9	i	-24	-0.1	-0.6	3.3

Just T cruzi repl, MLL AF4-AF9 inh and UCH37 inh, for three of the compounds above:
compound	T cruzi repl	MLL AF4-AF9 inh	UCH37 inh
CC(=O)c1c(N2CCN(C)CC2)nc(=S)n(-c2cc(C)ccc2C)c1C	-26	-4.4	6.8
CN(C(=O)c1cccc(NC(=O)Cc2ccc(NC(=O)C3CCCN(C(=O)C4CC4)C3)cc2)c1)C1CCC1 (centres undefined)	/	-1.2	2.9
CCN(CC)C(=O)COc1ccc(/C(C)=N/Nc2ncc(Cl)cc2Cl)cc1	-3	-0.9	/
